LANA-H2A inh: blocks KSHV LANA binding to histone H2A/H2B; Q9QR71; 320,000 compounds, 0.6% hits; cell-free LANA-H2A/H2B peptide, fluorescence polarization; inhibition, % (concentration not given with the values); in the data active means inhibition mostly above about 10%, no sharp cut-off; inactive means mostly below about 6.7%;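 further: stock transfer was 7.5 nL into about 10 µL; 0% = median of vehicle wells and 100% = median of positive control wells; one replicate is shown; the record names a cut of 25% in any replicate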
Ecoli rRNA inh: selective bacterial rRNA inhibition in E. coli. E. coli WT GFP vs humanized-ribosome RFP mutants, fluorescence, 24 h; stronger effect = lower value; DMSO median 0, no signal -100. GFP signal change (wild-type ribosome), % (no concentration beside the values). 350,000 compounds, 1.6% hits;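 active means significant combined selectivity score with lowered wild-type GFP, culture density cut under 30%, mutant RFP and density less affected; inactive means any of these conditions unmet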; further: one replicate is shown; some compounds called inactive have numbers as strong as hits
ALR H2O2 inh: blocks human ALR sulfhydryl oxidase activity | 290,000 compounds, 3.8% hits | inhibition, % (test concentration not listed) | purified ALR, DTT oxidation, H2O2 HRP-luminol luminescence;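 active means mean and each replicate at 75% or more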;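 further: stock transfer was 7.5 nL into about 7.5 µL; 0% = neutral wells and 100% = wells with inactivated enzyme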
Target sequence (P55789 whole entry, looked up): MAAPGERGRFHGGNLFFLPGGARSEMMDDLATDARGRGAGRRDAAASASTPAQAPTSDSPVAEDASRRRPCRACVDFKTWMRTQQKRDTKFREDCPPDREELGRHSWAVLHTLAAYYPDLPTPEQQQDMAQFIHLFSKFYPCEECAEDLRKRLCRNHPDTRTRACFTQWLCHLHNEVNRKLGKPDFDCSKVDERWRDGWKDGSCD
A1 inh: inhibitors of the anti-apoptotic protein A1, read as caspase activation; caspase activation, % (concentration not given with the values); MEF A1-2A-BIM cells, Caspase-Glo 3/7 luminescence, 3 h; percent of clofoctol response, vehicle zero; 330,000 compounds, 0.066% hits; AID 2462;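 active means over half of replicate activation scores above 10%, or exactly half above 10 with the replicate mean above 10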;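 further: wells of about 30 µL received 50 nL stock; many hits fall short of the cut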
T cruzi repl: T. cruzi replication inhibition | T. cruzi beta-gal in NIH3T3, luminescence, 90 h | inhibition, % (test concentration not listed) | 300,000 compounds, 1.4% hits | AID 1885;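 active means mean inhibition across valid replicates above about 55%, limit read from the data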;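 further: signal also drops with host cell toxicity which is not excluded here; 0% = plate median of DMSO wells and 100% = zero luminescence signal; higher percent means less beta-gal luminescence so fewer parasites; stock transfer was 50 nL into about 50 µL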
Calb FLC: affects C. albicans growth with fluconazole | C. albicans CaCi-2 (fluconazole-resistant clinical isolate) + fluconazole, Alamar Blue growth, 48 h | growth inhibition, % (concentration not given with the values) | 300,000 compounds, 0.57% hits | AID 1979;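 active means most replicates above 75%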;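 further: all wells also contain fluconazole at 8 µg/ml as a sub-toxic cotreatment; 0% = median of DMSO wells and 100% = median of geldanamycin control wells; wells of about 8 µL received 7.5 nL stock; the first replicate is given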
Beta2AR agonist: activates human beta-2 adrenergic receptor causing internalization | P07550 | Am2.2-beta2AR cells, FAP receptor internalization, flow cytometry; reference of the scale not given here | response, % (no concentration beside the values) | 340,000 compounds, 0.43% hits | AID 504454;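 active means response above a set limit, near 3 SD of response in nonfluorescent compounds, cut at about 42% in these data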;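 further: stock transfer was 100 nL into about 11 µL; a reference agonist was the positive control; negative values mostly stem from fluorescent compounds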
Target sequence (P07550 whole entry, looked up): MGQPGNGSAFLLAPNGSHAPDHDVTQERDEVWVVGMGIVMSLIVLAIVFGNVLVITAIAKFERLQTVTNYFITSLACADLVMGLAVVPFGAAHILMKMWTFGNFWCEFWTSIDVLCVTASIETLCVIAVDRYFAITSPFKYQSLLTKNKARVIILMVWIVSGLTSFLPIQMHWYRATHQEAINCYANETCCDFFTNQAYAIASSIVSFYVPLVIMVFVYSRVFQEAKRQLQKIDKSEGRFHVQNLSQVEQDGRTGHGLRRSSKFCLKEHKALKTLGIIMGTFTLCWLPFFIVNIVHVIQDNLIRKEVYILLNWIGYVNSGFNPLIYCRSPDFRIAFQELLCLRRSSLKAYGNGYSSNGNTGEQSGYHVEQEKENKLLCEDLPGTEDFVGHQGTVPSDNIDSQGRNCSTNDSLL
Beta apoptosis: beta cell apoptosis inhibition; 300,000 compounds, 0.8% hits; INS-1E cytokine-induced death, ATP luminescence, 48 h; percent of positive-control rescue, neutral wells zero; AID 435005; protection from apoptosis, % (no concentration beside the values);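 active means all replicates at 75% or more, or half of them and the mean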;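 further: 0% = cytokine-treated negative control wells and 100% = positive control rescue; higher means more ATP so stronger rescue from cytokine killing; wells of about 40 µL received 100 nL stock; the first replicate is given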
Ecoli rRNA inh OD600: recorded beside Ecoli rRNA inh, whose call it bears; OD600 change, %; measured here: OD600 growth;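 optical density of the mix in the first replicate; 0 = DMSO median and -100 = no signal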
Ecoli rRNA inh RFP: also measured in Ecoli rRNA inh; calls as there; RFP signal change, %; measured here: RFP humanized mutant strains;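 first replicate; 0 = DMSO median and -100 = no signal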
* marks the source's active call; other numbers are inactive results; i = inactive; · = not tested or not shown.

| smiles | LANA-H2A inh | Ecoli rRNA inh | Ecoli rRNA inh OD600 | Ecoli rRNA inh RFP | ALR H2O2 inh | A1 inh | T cruzi repl | Calb FLC | Beta2AR agonist | Beta apoptosis |
| --- | --- | --- | --- | --- | --- | --- | --- | --- | --- | --- |
| O=C(CCC(=O)N1CCOc2ccccc21)N1CCOCC1 | -2.9 | 14.8 | 4.7 | -1.4 | -9.9 | 0.0 | -11.3 | -6.5 | 4.8 | -4.0 |
| CCOC(=O)C1CCN(C(=O)c2ccc(NC(=O)C3CCCO3)cc2)CC1 (stereo unspecified) | 1.9 | · | · | · | · | -0.6 | -5.2 | 55.7 | 0.1 | -12.9 |
| O=C1Cc2cc(S(=O)(=O)N3CCN(c4ccccc4)CC3)ccc2N1 | -1.8 | -2.8 | 10.3 | 3.1 | 3.0 | · | -0.9 | 2.1 | -8.8 | -8.6 |
| Cc1cc(NC(=O)C(C)SCC(=O)OC(C)C(=O)Nc2ccc(F)cc2Cl)no1 (stereo unspecified) | -3.0 | 1.1 | 6.4 | -1.3 | 0.3 | -0.7 | -5.9 | -1.7 | -6.3 | -4.3 |
| COc1ccc(CN(C2CCCC2)S(=O)(=O)c2ccc(-n3cnnn3)c(OC)c2)cc1OC | 4.7 | -4.1 | -14.2 | 1.6 | -7.5 | -0.8 | 11.1 | 8.4 | 5.6 | 6.9 |
| CC(OC(=O)CNC(=O)C1CCCCC1)C(=O)NCc1ccccc1 (stereo unspecified) | -9.0 | 3.9 | 4.7 | 1.4 | 32.2 | 0.1 | · | · | -2.6 | -2.5 |
| CC1(C)CC(=O)/C(=C\c2cccc([N+](=O)[O-])c2)C(C)(C)N1 | -4.3 | 12.9 | 9.6 | -1.6 | 1.5 | 0.1 | 5.1 | 23.4 | 12.2 | -4.7 |
| C/C(CC(=O)Nc1ccccc1C#N)=N\NC(=O)c1ccncc1 | -6.6 | 0.3 | 14.6 | 1.7 | · | -0.3 | -15.7 | -1.7 | -1.0 | -4.7 |
| CC(C)(Oc1ccc(Cl)cc1)C(=O)NCc1ccncc1 | -3.5 | · | · | · | -1.4 | 0.3 | -4.2 | 9.2 | -9.4 | 0.0 |
| C=C(C)c1cccc(C(C)(C)NC(=O)Nc2nncs2)c1 | -6.8 | -11.6 | -8.8 | -2.4 | -2.2 | 1.5 | -7.8 | -4.8 | -3.8 | -6.5 |
| CN1C(=O)c2ccccc2N(C)C1c1ccc(F)cc1 (stereo unspecified) | -1.9 | -11.9 | -1.7 | -8.2 | 4.3 | 1.1 | -9.9 | 7.4 | 6.6 | -8.9 |
| Cc1ccc(NS(=O)(=O)c2ccc(-c3coc(C)n3)cc2)c(C)c1 | -1.4 | -8.0 | 1.2 | 7.4 | -0.6 | 0.0 | -12.9 | 6.5 | 1.7 | 3.5 |
| CSCC[C@H](NC(=O)c1ccc2c(c1)OCO2)c1nnc2ccccn12 | -13.1 | 2.5 | 3.3 | -1.3 | -2.9 | 0.8 | 0.4 | 4.5 | -3.2 | -0.9 |
| COC(=O)Nc1ccc(S(=O)(=O)NNC(=O)c2c(O)c3ccccc3n(C)c2=O)cc1 | -2.9 | 7.1 | 7.3 | -2.5 | 4.9 | -0.5 | -8.1 | -11.2 | -2.2 | -0.9 |
| CS(=O)(=O)c1cccc(C(=O)NCc2ccc(F)cc2)c1 | -7.3 | · | · | · | · | -0.2 | · | · | 4.3 | 2.2 |
| CN(Cc1ccccc1)S(=O)(=O)c1ccc2c(c1)n(C)c(=O)c(=O)n2C | -13.1 | 8.4 | -3.5 | 6.2 | -3.5 | 1.1 | -7.8 | -6.2 | 1.3 | -2.0 |
| COc1ccc(C2=NN(C(=O)CSc3nc4ccccc4s3)C(c3ccc(F)cc3)C2)cc1 (stereo unspecified) | 1.0 | 10.2 | 10.5 | 5.7 | -17.5 | 1.4 | 12.3 | -3.8 | -0.8 | · |
| Cc1csc(NC(=O)C(C)Oc2ccc(Br)cc2)n1 (stereo unspecified) | -6.1 | -3.9 | -36.9 | 0.1 | -16.0 | 1.1 | 16.6 | 1.4 | -3.2 | · |
| CCCC(C)C(=O)Nc1nc(C)c(-c2csc(Nc3ccccc3OC)n2)s1 (stereo unspecified) | 5.3 | 1.8 | 11.9 | 8.0 | -1.7 | 0.6 | -11.6 | 0.0 | 22.3 | 2.3 |
| O=C(CC1NCCc2ccccc21)Nc1ccccc1 (stereo unspecified) | 1.2 | 8.8 | 7.3 | 0.6 | -2.0 | 0.9 | -3.1 | -19.3 | 4.5 | -0.7 |
| COC(=O)c1sccc1Oc1ccc(F)cc1[N+](=O)[O-] | 1.7 | · | · | · | -5.0 | -1.0 | -7.5 | -6.6 | -9.7 | -2.2 |
| COc1ccc(NC(=O)C2(c3ccc(NC(=O)c4ccc(OC)cc4)cc3)CCCC2)cc1 | -2.8 | · | · | · | -14.1 | 0.6 | -11.3 | 19.8 | 2.5 | -9.2 |
| COc1ccc2nc(-n3c(O)c(C4=c5ccccc5=NC4=O)[nH]c3=S)sc2c1 | i | -44.5* | 18.0* | -18.5* | 1.8 | 0.5 | -4.4 | -3.0 | 13.9 | 9.9 |
| CC1CCCCN1C(=O)COC(=O)Cc1c[nH]c2ccccc12 (stereo unspecified) | 0.0 | 3.5 | -0.6 | 2.4 | -3.4 | 0.8 | · | · | 6.3 | -0.5 |
| CCCCn1c(SCC(=O)Nc2nccs2)nc2ccccc2c1=O | -2.4 | · | · | · | -9.2 | -0.1 | -10.2 | -7.3 | -12.2 | 1.1 |
| Cn1ncc(Br)c1C(=O)NCc1cccs1 | -3.2 | 10.3 | 4.9 | -7.9 | -11.5 | -0.3 | -7.6 | 7.6 | 5.4 | 0.6 |
| OCC1(CCOc2ccccc2)CCN(Cc2ccncc2)CC1 | 3.2 | 1.5 | 11.8 | 0.5 | · | -0.9 | 6.8 | -0.1 | 12.8 | -1.6 |
| O=C(COc1ccccc1Br)NCCc1nc2ccccc2[nH]1 | 2.0 | · | · | · | -2.8 | 0.2 | 17.4 | 1.2 | -5.5 | -8.0 |
| CCc1cccc(NC(=O)CN(c2ccc(C)cc2)S(=O)(=O)c2c(C)noc2C)c1 | -3.2 | -30.8* | -23.5* | -6.7* | -3.9 | -0.7 | 18.7 | 9.5 | 13.0 | 17.2 |
| CCC(=O)NC(=S)Nc1ccc(NC(=O)c2cccc([N+](=O)[O-])c2C)cc1 | 6.2 | · | · | · | -2.2 | 0.5 | -6.0 | -5.1 | -5.0 | 0.2 |

(more compounds)
| smiles | LANA-H2A inh | Ecoli rRNA inh | Ecoli rRNA inh OD600 | Ecoli rRNA inh RFP | ALR H2O2 inh | A1 inh | T cruzi repl | Calb FLC | Beta2AR agonist | Beta apoptosis |
| --- | --- | --- | --- | --- | --- | --- | --- | --- | --- | --- |
| CN1CCN(c2ccc([N+](=O)[O-])cc2NC(=O)c2cccs2)CC1 | -0.2 | -0.1 | 3.0 | 0.2 | -4.0 | -1.7 | 21.7 | -10.6 | -13.8 | · |
| CCN(CC(=O)Nc1ccc2c(c1)OCCO2)c1ccc(S(=O)(=O)N2CCOCC2)cn1 | 2.5 | · | · | · | -16.5 | 0.2 | -2.4 | -8.8 | 0.6 | -6.3 |
| CS(=O)(=O)c1cnc(-c2ccccc2)nc1Oc1ccc(Cl)cc1 | 0.9 | · | · | · | -3.9 | -1.1 | 32.6 | -11.5 | -3.0 | 0.0 |
| O=C1CC(NNC(=O)c2cccc(F)c2)C(=O)N1 (stereo unspecified) | 1.5 | 3.3 | -8.1 | -1.6 | 92.2* | 0.2 | -4.6 | 6.5 | -3.3 | -6.7 |
| Cn1c(-c2ccc(C(F)(F)F)cc2)cc2onc(-c3ccccc3)c2c1=O | -1.6 | 12.7 | 12.0 | 0.7 | -12.0 | -4.9 | · | · | -5.6 | 7.8 |
| CCOC(=O)C1CCN(S(=O)(=O)c2ccc3c(ccn3C)c2)CC1 | 0.9 | 3.4 | 4.1 | 1.7 | -1.3 | -0.5 | -10.8 | -35.3 | 3.4 | -8.6 |
| CS(=O)(=O)N1CCCC(C(=O)c2cccc(Cl)c2)C1 (stereo unspecified) | 3.5 | 1.1 | 1.6 | -7.0 | -5.4 | -0.1 | -3.1 | -1.7 | -5.5 | -1.2 |
| CCC(C)N(C(=O)c1csnn1)C(C(=O)NCc1ccc(F)cc1)c1ccccc1 (stereo unspecified) | 5.1 | · | · | · | -7.7 | -0.5 | 1.2 | -0.8 | 1.2 | -3.2 |
| Cn1cncc1C#Cc1ccc2cc(CCO)oc(=O)c2c1 | 3.9 | 12.4 | 6.6 | 10.0 | -2.5 | 0.5 | · | · | 2.1 | -3.6 |
| COc1ccc(C(c2nnnn2CC2CCCO2)N2CCC(C(N)=O)CC2)cc1 (stereo unspecified) | 2.5 | · | · | · | -10.9 | 0.7 | -9.7 | -8.1 | 3.1 | -1.7 |
| C/C(CC(=O)Nc1cc(Cl)ccc1Cl)=N\NC(=O)COc1cccc(C)c1 | 3.5 | 6.4 | 6.9 | -1.2 | 3.0 | 0.2 | -13.9 | -8.7 | 1.9 | -7.1 |
| CC(=O)C1=C(O)C(=O)N(c2ccc(Br)cc2)C1c1ccccc1[N+](=O)[O-] (stereo unspecified) | 0.0 | -6.8 | 2.1 | 0.9 | 20.8 | 0.9 | -3.0 | 23.2 | -0.5 | -2.7 |
| Cc1ccc(C(=O)Oc2coc(CSc3nnc(NC(=O)C4CC4)s3)cc2=O)cc1 | -0.6 | 13.9 | 1.7 | 4.8 | 1.5 | 0.5 | -14.4 | -20.6 | 3.7 | -6.5 |
| O=C(C1=C[C@H](c2ccc3c(c2)OCO3)C[C@H](OCCCCO)O1)N1CCN(Cc2ccccc2)CC1 | -2.6 | 1.6 | -16.1 | 14.1 | -11.4 | 1.7 | 30.0 | -6.9 | -1.9 | -2.5 |
| O=C(C1CCN(C2CCN(CC3CC=CCC3)CC2)CC1)N1CCOCC1 (stereo unspecified) | 1.0 | 9.6 | 7.0 | 0.4 | · | 0.6 | 7.5 | 2.9 | -5.0 | -7.8 |
| COc1cccc(CNC(=O)N2CCN(c3ccccc3)CC2)c1 | 3.4 | -3.4 | 1.2 | -2.8 | 8.6 | -0.2 | -0.2 | -5.8 | -5.1 | -3.4 |
| Cc1ccc(Oc2cnn(-c3ccccc3)c(=O)c2Br)cc1 | -2.5 | -28.9 | -34.2 | -4.2 | 0.1 | 0.1 | -2.2 | 16.4 | -4.7 | 0.2 |
| O=C(O)CC1(CC(=O)Nc2ccc(F)c(Cl)c2)CCCCC1 | -12.5 | -23.4* | -4.7* | -0.7* | 13.9 | 0.8 | -11.5 | 2.5 | 7.4 | · |
| COC(=O)C(Cc1ccccc1)NS(=O)(=O)c1ccc(F)cc1Br (stereo unspecified) | 0.9 | -5.9 | -7.7 | -1.8 | -8.8 | 0.7 | -5.5 | -2.7 | 1.5 | -2.8 |
| N/C(=N\OC(=O)Oc1ccccc1)c1ccc(Cl)cc1 | 3.2 | · | · | · | 1.6 | -0.5 | -6.5 | 4.1 | -1.1 | -1.3 |
| CC(CCn1cccn1)NC(=O)c1cc(COc2ccc(F)cc2Cl)on1 (stereo unspecified) | 1.3 | -12.4 | -12.2 | 1.1 | 0.6 | -0.6 | -25.0 | -11.7 | 3.5 | -4.1 |
| Cc1ccccc1C(=O)Nc1nncs1 | 3.0 | · | · | · | 6.2 | 2.0 | -18.5 | 3.0 | 1.1 | -5.8 |

An excerpt; rates above refer to the full screens.
